# High-throughput results (PubChem BioAssay)
# LANA-H2B inh = blocks KSHV LANA binding to histone H2A/H2B | Q9QR71 | cell-free LANA-H2A/H2B peptide, fluorescence polarization | inhibition, % (concentration not given with the values) | 0.6% of 320,000 active | AID 2629; in the data active means inhibition mostly above about 10%, no sharp cut-off; inactive means mostly below about 6.7%;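 further: stock transfer was 7.5 nL into about 10 µL; 0% = median of vehicle wells and 100% = median of positive control wells; one replicate is shown; the record names a cut of 25% in any replicate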
# Target sequence (Q9QR71 whole entry, looked up): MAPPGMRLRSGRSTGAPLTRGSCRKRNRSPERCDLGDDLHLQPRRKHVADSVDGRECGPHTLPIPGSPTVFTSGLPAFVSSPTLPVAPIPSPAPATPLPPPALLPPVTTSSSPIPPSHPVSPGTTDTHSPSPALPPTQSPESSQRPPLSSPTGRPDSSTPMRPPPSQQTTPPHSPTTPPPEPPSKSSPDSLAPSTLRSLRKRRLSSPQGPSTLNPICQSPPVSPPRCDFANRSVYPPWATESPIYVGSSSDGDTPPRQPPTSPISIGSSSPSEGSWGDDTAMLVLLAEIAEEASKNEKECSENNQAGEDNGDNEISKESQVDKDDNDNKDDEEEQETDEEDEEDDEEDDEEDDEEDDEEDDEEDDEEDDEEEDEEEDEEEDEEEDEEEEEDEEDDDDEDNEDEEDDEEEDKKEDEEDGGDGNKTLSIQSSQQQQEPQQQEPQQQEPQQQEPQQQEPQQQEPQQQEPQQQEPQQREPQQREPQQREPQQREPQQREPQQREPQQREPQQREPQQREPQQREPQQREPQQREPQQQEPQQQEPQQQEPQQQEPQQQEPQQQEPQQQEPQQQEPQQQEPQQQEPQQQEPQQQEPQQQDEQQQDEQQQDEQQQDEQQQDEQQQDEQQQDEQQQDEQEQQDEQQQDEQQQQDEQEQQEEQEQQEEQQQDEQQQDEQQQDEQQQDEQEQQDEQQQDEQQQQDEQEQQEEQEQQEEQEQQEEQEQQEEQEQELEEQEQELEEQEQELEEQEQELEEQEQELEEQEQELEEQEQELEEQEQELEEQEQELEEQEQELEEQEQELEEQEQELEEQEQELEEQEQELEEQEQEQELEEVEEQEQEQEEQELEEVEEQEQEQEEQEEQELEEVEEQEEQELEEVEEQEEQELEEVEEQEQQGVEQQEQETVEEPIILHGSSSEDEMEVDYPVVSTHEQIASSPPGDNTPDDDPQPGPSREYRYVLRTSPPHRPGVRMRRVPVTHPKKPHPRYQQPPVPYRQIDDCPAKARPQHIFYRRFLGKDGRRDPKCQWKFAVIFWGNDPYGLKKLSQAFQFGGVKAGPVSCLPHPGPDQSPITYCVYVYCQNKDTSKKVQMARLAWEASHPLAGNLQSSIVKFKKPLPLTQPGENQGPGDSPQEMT
# Bfl-1 A1 inh = inhibitors of the anti-apoptotic protein A1, read as caspase activation | MEF A1-2A-BIM cells, Caspase-Glo 3/7 luminescence, 3 h; percent of clofoctol response, vehicle zero | caspase activation, % (concentration not given with the values) | 0.066% of 330,000 active | AID 2462;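 active means over half of replicate activation scores above 10%, or exactly half above 10 with the replicate mean above 10; inconclusive means replicate mean below 10 yet half the replicates above 10; inactive means over half of replicates below 10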;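 further: wells of about 30 µL received 50 nL stock; many hits fall short of the cut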
# Vif A3G = inhibitors of Vif binding to APOBEC3G peptide, primary screen, biochemical, TR-FRET, GST-Vif 1-94, biotin-A3G peptide, dose response retest (AID 1117319) | inhibition, %, or IC50 in µM where a hit was titrated | TR-FRET GST-Vif / biotin-A3G peptide binding; higher % means a stronger effect; test concentration not given here; strong numbers were not always called active | 0.57% of 260,000 active;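 active means above the screen mean plus three standard deviations and confirmed in dose response; inconclusive means results disagree or hit not tested in dose response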;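 further: Vif residues 1-94 fused to GST binding biotinylated APOBEC3G peptide 110-148; 0% = full assay without inhibitor and 100% = GST in place of GST-Vif; retest series ran down from 100 µM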
# B2AR ag = activates human beta-2 adrenergic receptor causing internalization | response, % (concentration not given with the values) | 0.43% of 340,000 active | AID 504454 | Am2.2-beta2AR cells, FAP receptor internalization, flow cytometry; reference of the scale not given here | P07550;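 active means response above a set limit, near 3 SD of response in nonfluorescent compounds, cut at about 42% in these data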;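 further: stock transfer was 100 nL into about 11 µL; a reference agonist was the positive control; negative values mostly stem from fluorescent compounds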
# Ecoli growth = E. coli growth inhibition; Escherichia coli growth, OD600, 23 h; active compounds read low; OD600 absorbance (no concentration beside the values); 0.21% of 330,000 active; AID 1053175;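 active means OD600 absorbance below the run mean of sample wells minus 3.6 SD, in any replicate, cut at about 0.56 in these data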;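 further: stock transfer was 300 nL into about 60 µL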
# HNF4A DNA FP = change in binding of human HNF4 alpha to DNA | 0.3% of 360,000 active | activity change, % at 10 µM | P41235 | HNF4a-FITC DNA binding, fluorescence polarization, 1 h; in the data active means activity change above about 30%, passing the limit was not always enough;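 further: controls were the assay level and a saturating level of protein; the project sought stronger binding though the title names inhibitors; some compounds called inactive have numbers as strong as hits; positive values seem to mean higher polarization but the record does not say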
# UCH37 DUB inh = blocks the human deubiquitinase UCH37. purified proteasome/UCH37, Ub-AMC cleavage fluorescence. inhibition, % (concentration not given with the values). 0.33% of 330,000 active. Q9Y5K5. AID 588478;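 active means mean of two replicates above 20%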;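 further: 0% = compound-free wells with enzyme and 100% = wells lacking proteasome; stock transfer was 100 nL into about 20 µL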
#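 Material: human UCH37 enzyme supplied as purified proteasome complex. Measure: % inhibition of Ub-AMC cleavage fluorescence. Medium: pH 7.4 Tris-HCl (50 mM) with ovalbumin, ATP-MgCl2, DTT. Times: 30 min preincubation with enzyme, 25 min cleavage at room temperature. Detection: AMC fluorescence intensity at 355/460 nm.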
# * hit, by the source's call; i = inactive; ? = inconclusive; / = not tested or not shown.
SMILES,LANA-H2B inh,Bfl-1 A1 inh,Vif A3G,B2AR ag,Ecoli growth,HNF4A DNA FP,UCH37 DUB inh
COCCN(CCOC)C(=O)CN1C(=O)NC2(CCCc3sccc32)C1=O (stereo not drawn),1.9,1.7,/,3.7,0.661,0.6,2.2
OC(COc1ccc(F)cc1Cl)CN1CCC(Cc2ccccc2)CC1 (stereo not drawn),-0.9,0.0,-2.3%,-2.9,0.571,1.9,5.7
CCOC(=O)c1c(C)[nH]c(C)c1S(=O)(=O)NCc1ccccc1OCC,1.8,-1.7,/,-7.1,0.678,1.7,3.6
O=C(CCCN1C(=O)C(c2ccccc2)Oc2cccnc21)NCc1ccccc1F (stereo not drawn),10.1,-0.1,3.2%,10.8,0.712,4.8,0.2
COCCNC(=O)C(OC(=O)C1=Cc2ccccc2OC1)C(C)C (stereo not drawn),3.1,-0.5,/,1.4,0.688,-4.6,-27.2
O=C(c1ccco1)N1CCc2[nH]nc(-c3ccc(Cl)cc3)c2C1,2.5,-0.2,/,3.0,0.663,4.0,3.2
O=C(O)CCn1cc(C(=O)O)c(-c2ccccc2)n1,4.8,0.0,18.8%,-6.5,0.699,-4.0,-0.1
CCC(C)(C)NC(=O)CN(C(=O)c1snc(C(N)=O)c1N)c1ccc2nc(C)sc2c1,-1.3,0.1,13.2%,-1.2,0.67,3.2,-11.9
COc1ccc(/C=C/C(=O)c2nc3ccccc3n2CC(=O)c2ccc(OC)cc2)cc1,-4.3,0.0,-6.0%,2.1,0.661,-0.8,6.3
CC(C)(C)N1C(=O)[C@H]2[C@@H](c3ccc(Br)cc3)N3C(=O)N(c4cccc(Cl)c4)C(=O)[C@@]3(Cc3ccccc3)[C@H]2C1=O,0.2,0.6,/,-1.0,/,0.7,1.1
Cc1nc2ccccc2c(=O)n1NC(=O)c1ccccc1[N+](=O)[O-],-5.4,0.5,3.5%,-0.9,0.728,1.1,3.4
CC(NC(=O)Cc1ccsc1)c1ccc(F)cc1 (stereo not drawn),-1.0,0.6,/,2.3,0.692,0.1,2.1
Cc1cccc(Nc2nc(N)nc(CN3CCN(c4ccc(F)cc4)CC3)n2)c1,-5.9,-0.8,-4.6%,8.2,0.684,2.2,1.5
COc1ccc(C(=O)Nc2c(N)nc(SCC(=O)NCC3CCCO3)[nH]c2=O)cc1 (stereo not drawn),-1.8,0.7,/,-1.4,/,-2.9,/
CC(=O)Nc1ccc(S(=O)(=O)Nc2nc3ccc([N+](=O)[O-])cc3s2)cc1,4.2,-0.2,0.8%,-3.3,0.692,1.3,5.5
Cn1nnnc1SCCNCc1ccncc1,1.0,0.3,0.7%,19.9,0.695,0.1,3.6
C=CCOc1ccc(-c2nc3c(c(=O)[nH]c(=O)n3CCCC)n2C)cc1Br,2.6,-0.2,/,-22.5,0.7,2.2,-5.9
CCCOc1ccc(-c2c(C(=O)N/N=C/c3ccc(OC)cc3)nnn2-c2nonc2N)cc1,-0.4,0.4,-1.5%,1.0,/,1.0,/
COC(=O)Nc1ccc(S(=O)(=O)N2CCCC(C(=O)N3CCCCCC3)C2)cc1 (stereo not drawn),3.6,0.4,-4.7%,-14.6,0.663,0.7,0.3
O=C(COC(=O)c1ccccc1O)NC(c1ccccc1)c1ccccc1,0.4,-0.2,-5.1%,7.1,0.711,2.0,-11.2
S=C(NC1CCCCC1)N1CCN(Cc2ccccc2Cl)CC1,-1.9,0.2,-3.7%,-18.1,0.716,4.5,2.7
COc1ccccc1C(=O)NC(=O)CSc1ccc(C)c(C)c1,6.2,0.1,5.4%,-5.0,0.697,0.3,4.1
Cc1cc2nnc(SCC(=O)N3CCN(c4ccccc4)CC3)n2c(N)n1,-1.6,-0.1,5.7%,-7.9,0.687,1.6,-3.5
O=C(COC(=O)CCC(NC(=O)OCc1ccccc1)C(=O)OCC(=O)Nc1ccccc1)Nc1ccccc1 (stereo not drawn),-4.9,1.8,/,-2.5,0.705,3.3,1.1
COc1cccc(CN(C(=O)c2ccccc2)C2CCS(=O)(=O)C2)c1 (stereo not drawn),-1.0,-0.7,5.9%,-4.7,0.661,-0.2,2.3
COc1ccc(C(=O)NNC(=O)Cc2ccc(-c3ccccc3)cc2)cc1OC,1.3,1.5,0.0%,-9.0,0.8,-2.5,1.0
CCCC1(C(=O)OC)NC(c2ccc(OC)c(OC)c2)C2C(=O)N(c3cccc(C(C)=O)c3)C(=O)C21 (stereo not drawn),-2.2,1.3,-8.5%,-9.5,/,0.8,/
COc1ccc(C(CCN2CCN(c3ccccc3)CC2)c2c(OC)cc(OC)c3c(-c4ccccc4)cc(=O)oc23)cc1 (stereo not drawn),2.3,0.4,/,-4.7,0.699,-3.7,-1.1
CCCCNC(=O)CO/N=C(\C)c1cc2ccccc2o1,0.2,0.4,?,-2.9,/,-0.6,/
Cc1cccc(-n2c(C)n[nH]c2=S)c1C,-0.1,-0.3,32.2%,4.0,0.731,-0.2,-1.5
Cc1csc(NC(=O)CSc2nnc(NC(=O)COc3ccccc3)s2)n1,/,1.1,-1.2%,0.4,0.68,0.4,2.4
CCOC(=O)c1ccc(Nc2nc(-c3cccnc3)nc3ccccc23)cc1,-1.3,0.1,16.1%,18.4,0.791,3.3,-26.5
COc1cccc(C(c2nnnn2C(C)(C)C)N2CCN(C3CCCCC3)CC2)c1OC (stereo not drawn),/,/,2.1%,-2.7,0.711,-1.6,2.0
CCCC1(C(=O)OC)NC(c2ccco2)C2C(=O)N(c3ccc(C)cc3)C(=O)C21 (stereo not drawn),-1.0,-1.2,-8.6%,-3.4,0.706,-1.3,2.0
N#Cc1ccc(COC(=O)c2ccc3c(=O)[nH]c(CN4CCOCC4)nc3c2)cc1,-0.1,-0.4,?,11.4,0.758,5.3,2.2
CCOc1ccc(CNC(=O)Cn2ccc3cc(S(=O)(=O)N4CCCC4)ccc32)cc1,0.0,-1.1,0.2%,-2.9,0.688,3.9,-1.0
O=C(C1CCCCC1)N1CCC(c2nc3c(nnn3Cc3ccccc3Cl)c(=O)[nH]2)CC1,/,/,/,1.1,0.717,4.5,2.2
O=C(Cn1cnc2c(nnn2Cc2ccc(F)cc2)c1=O)NCC1CCCO1 (stereo not drawn),3.0,0.7,29.1%,11.8,0.632,2.1,-0.3
COc1ccccc1NC(=O)Cn1cnc2c(oc3nc4c(cc32)CCCC4)c1=O,0.9,-0.7,/,0.0,0.667,6.2,-2.5
O=C(Nc1ccc2c(c1)OCCO2)c1ccc(CN2CCOCC2)cc1,-1.3,-0.9,3.5%,21.2,0.769,26.0,5.8
CCC1CCCCN1S(=O)(=O)Cc1ccccc1Cl (stereo not drawn),0.8,0.4,13.4%,-3.1,0.702,-4.1,3.3
Cn1ncc([N+](=O)[O-])c1C(=O)Nc1ccc(-c2nc3ccccc3[nH]2)cc1,-7.2,-1.1,23.5%,-4.8,0.64,0.0,5.3
CC(=O)Nc1ccc(C(=O)Nc2ccc(S(=O)(=O)N3CCOCC3)cc2)cc1,-0.7,-0.6,/,-13.4,0.675,-4.7,1.7
Cc1ccc(O)c(Nc2c3ccccc3nc3ccccc23)c1,-6.9,-0.5,-2.1%,8.2,0.517,-1.9,-28.8
O=C(NCCCN1CCOCC1)c1ccc(CSCc2cccc(Cl)c2)o1,-0.4,-0.3,-6.3%,-8.6,0.668,-0.6,0.6
O=C(OCc1nnc(-c2ccccc2)o1)c1ccc([N+](=O)[O-])s1,/,1.0,3.9%,1.3,0.642,-0.2,79.8*
CC1CCCCN1CCCNc1ccc(C(CC(N)=O)NC(=O)Cc2ccc(Cl)cc2)cc1[N+](=O)[O-] (stereo not drawn),3.4,0.3,/,-3.5,0.708,0.0,-1.9
COc1cc(CNCCN(C)C)ccc1OCc1c(F)cccc1Cl,4.8,-0.1,4.5%,11.9,0.678,1.4,2.5
CC(C)/C=C1\CCCCC1N(C)C(=O)NC(C)C (stereo not drawn),2.5,0.9,-1.9%,-6.3,/,1.1,4.5
COc1ccc(NC(=O)CSc2nc3[nH]ncc3c(=O)n2-c2ccccc2OC)cc1OC,2.6,1.1,5.4%,-0.4,0.656,-0.6,2.1
NC(=O)c1ccc(Oc2ccc3c(c2)CCC3)c([N+](=O)[O-])c1,6.0,0.1,/,0.0,/,2.8,/
Cc1ccc(S(=O)(=O)NC(=O)Nc2cccc([N+](=O)[O-])c2)cc1,-2.6,0.7,/,5.4,0.708,3.9,5.0
Cn1c2ccccc2c2nnc(SCC(=O)Nc3ccccc3F)nc21,-1.6,1.0,/,-0.5,0.685,1.5,3.5
CCOC(=O)c1c(NC(=O)CN2C(=O)NC3(CCCCC3C)C2=O)sc(C)c1C (stereo not drawn),-8.0,-0.3,-4.2%,-0.1,/,0.4,2.5
CCCC(=O)NC(c1ccco1)c1cc([N+](=O)[O-])c2cccnc2c1O (stereo not drawn),-1.1,-0.2,?,9.6,0.623,-9.7,13.8
O=C(OCC(=O)N1CCOCC1)c1c(Cl)ccc(Cl)c1Cl,2.7,0.9,/,-8.2,0.612,-4.5,1.7
COCCCNC(=O)Cn1ccc(N)nc1=O,2.2,0.2,/,-8.9,0.785,-0.7,4.9
Cc1c(Cl)cccc1NC(=O)Nc1ccc(C(=O)N2CCCC2)cc1,3.4,-5.6,/,5.6,0.674,-0.6,2.3
O=C(CSc1nnnn1Cc1ccccc1)Nc1ccc2c(c1)OCCO2,-1.1,-0.5,20.9%,3.1,0.72,2.6,2.3
Cc1cccn2c(=O)c(/C=C3\SC(=S)NC3=O)c(NCCCN3CCOCC3)nc12,-2.7,0.4,4.5%,-71.7,0.736,108.9*,3.3

# Looked up by structure from the list above, 2 records:
SMILES,LANA-H2B inh,Bfl-1 A1 inh,Vif A3G,B2AR ag,Ecoli growth,HNF4A DNA FP,UCH37 DUB inh
O=C(OCC(=O)N1CCOCC1)c1c(Cl)ccc(Cl)c1Cl,2.7,0.9,/,-8.2,0.612,-4.5,1.7
Cc1c(Cl)cccc1NC(=O)Nc1ccc(C(=O)N2CCCC2)cc1,3.4,-5.6,/,5.6,0.674,-0.6,2.3

# More records follow:
SMILES,LANA-H2B inh,Bfl-1 A1 inh,Vif A3G,B2AR ag,Ecoli growth,HNF4A DNA FP,UCH37 DUB inh
CN(c1ccccc1)S(=O)(=O)c1cc(C(=O)Nc2nc3ccccc3[nH]2)ccc1Cl,1.6,1.1,/,-0.1,0.748,-1.5,-4.2
O=C(OCC(=O)N1CCN(c2ccccc2)CC1)c1ccccc1NCCO,-0.8,0.8,-4.6%,3.9,0.677,0.4,i
CC(=O)N1NC(=Nc2ccccc2)SC1(C)C,-5.3,-1.1,8.5%,8.6,0.651,3.6,5.7
Cc1cccc2c1N(CCCOc1ccccc1)C(=O)C2=O,-1.1,-0.2,12.3%,7.2,0.729,-1.1,8.1
COc1ccc(NC(=O)c2nc[nH]c2C(=O)N[C@@H](C)C(=O)OC(C)(C)C)cc1,0.6,-0.2,9.4%,-2.4,/,2.6,1.8
CC(C)CCSc1nnc(N)s1,0.3,0.5,14.3%,-2.7,0.649,-2.0,6.7
O=C(O)C(Cc1ccc(O)c([N+](=O)[O-])c1)N1C(=O)c2ccccc2C1=O (stereo not drawn),/,/,-1.6%,5.9,/,1.0,/
COc1cc(C(=O)NCC(=O)n2nc(C)cc2C)cc(OC)c1OC,-1.3,0.9,0.6%,-3.3,0.725,0.9,2.2
CC1(C)Oc2ccc(C(=O)N3CCc4ccccc43)cc2N(CC(=O)N2CCCC2)C1=O,-2.2,0.7,7.9%,-2.6,0.726,0.5,0.2
O=C(Nc1ccc(Br)cc1F)C1CC(=O)N(C2CCCCC2)C1 (stereo not drawn),-1.1,?,/,4.9,0.729,3.0,0.1
